Screens deposited in PubChem BioAssay by National Center for Advancing Translational Sciences (NCATS).
SARS PLpro yeast = blocks SARS-CoV papain-like protease in a yeast assay; S. cerevisiae expressing SARS-CoV PLpro, growth rescue; control for the full effect not named in the record; Potency, µM (titrated, usually from 32.9 µM), without a hit: at the highest dose activity, positive = growth rescue; 330,000 compounds, 0.19% hits; AID 485353; also: 0% is about no effect; nearly all actives have a fitted effect of over 55% in size; growth read by luminescence after 48 h
LASV entry inh = blocks Lassa virus binding to or entry into cells | Potency, µM (doses to about 37.9 µM), for inactives: at the highest dose activity change, negative = inhibition, most hits filed as inhibitors | Lassa virus pseudotype entry inhibition, cell reporter; control for the full effect not named in the record | 300,000 compounds, 1.2% hits; active means well fitted inhibition curve with a large enough effect; inconclusive means small, poorly fitted or top-dose-only effect, or effect the other way; inactive means flat fitted curve, though single readings scatter; tested in HEK293 cells; also: % is scaled to controls: 0 for no effect and ±100 for the full control effect; nearly all actives have a fitted effect of over 50% in size; luciferase read-out
RE007 growth inh = less growth of the S. pombe RE007 Vpr strain; S. pombe RE007 Vpr strain, BacTiter-Glo ATP luminescence, 24 h; control for the full effect not named in the record; Potency, µM (series often up to 92.2 µM), for the others: at the highest dose activity change, negative = less growth; 360,000 compounds, 0.21% hits; active = well fitted falling curve with a large enough effect; inconclusive = small, poorly fitted or top-dose-only effect; inactive = no such curve, though single readings can be large or run the other way;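 also: % is scaled to controls: 0 for no effect and ±100 for the full control effect; nearly all actives have a fitted effect of over 50% in size; the assay follows cell death caused by Vpr and the record does not say whether a fall means rescue or toxicity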
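Fission yeast RE007 carrying one integrated HIV-1 vpr copy, seeded at OD 0.01 in PMG+AL medium with 23 nL pinned compound. Grown 24 h at 30 degrees; viability read by BacTiter-Glo luminescence after 5 min.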
MARV entry inh = Marburg virus entry inhibition; 300,000 compounds, 1.8% hits; Potency, µM (series often up to 37.8 µM), for the others: at the highest dose activity change, negative = inhibition, hits mostly inhibitors; Marburg virus pseudotyped entry inhibition, cell reporter; control for the full effect not named in the record; about a third of the inactives were read at about 46 µM; AID 540276; active = well fitted inhibition curve with a large enough effect; inconclusive = small, poorly fitted or top-dose-only effect, or effect the other way; inactive = flat fitted curve, though single readings scatter; tested in HEK293 cells; about a fifth of its hits are not listed in these tables; also: % is scaled to controls: 0 for no effect and ±100 for the full control effect; luciferase read-out
Cruzain Triton = blocks cruzain activity in presence of Triton detergent; P25779; purified cruzain, Z-FR-AMC fluorescence, 0.01% Triton; Potency, µM, inactives show max response, negative = inhibition, actives largely listed as inhibitors; 200,000 compounds, 0.43% hits; AID 1478; active = well fitted curve in the direction sought with a large enough effect; inconclusive = small, poorly fitted or top-dose-only effect, or another doubt; inactive = no such curve, though single readings can be large; an effect the other way counts as inactive or inconclusive;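 also: plate controls were neutral wells for no effect and buffer without enzyme for full effect; nearly all actives have a fitted effect of over 40% in size; top concentration of the series not given in the record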
Target sequence (P25779 123-467 limits assumed): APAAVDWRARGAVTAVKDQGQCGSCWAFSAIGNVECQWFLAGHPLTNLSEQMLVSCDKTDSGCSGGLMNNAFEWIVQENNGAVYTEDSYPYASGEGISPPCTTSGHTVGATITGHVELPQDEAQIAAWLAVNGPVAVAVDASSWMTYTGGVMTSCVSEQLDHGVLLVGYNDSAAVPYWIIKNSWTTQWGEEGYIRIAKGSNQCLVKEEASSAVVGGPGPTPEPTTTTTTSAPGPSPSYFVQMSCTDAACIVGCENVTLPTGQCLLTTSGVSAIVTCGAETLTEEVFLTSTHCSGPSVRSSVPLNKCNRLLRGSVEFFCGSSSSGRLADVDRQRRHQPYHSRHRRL
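In this qHTS format, compounds are incubated with 1.5 nM cruzain for 15 min at room temperature before 2 uM Z-FR-AMC is added. Release of AMC is followed at 360/450 nm, and progress is taken as the 60 s fluorescence difference.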
NS1 inh = blocks influenza NS1 protein function. S. cerevisiae slowed by influenza A NS1, growth recovery by OD600. Potency, µM (top dose mostly 46.1 µM), inactives show top-dose activity, positive = more growth. 270,000 compounds, 0.4% hits. AID 2326; also: actives are rising curves; nearly all actives have a fitted effect of over 50% in size
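OD600 was taken as the measure of yeast growth restored by compound in an NS1-expressing S. cerevisiae strain. Cells had been washed out of glucose medium and diluted 1:100 into galactose -URA medium, pH 6.0.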
StopGo reporter = lowers the luciferase signal of an FMDV 2A StopGo reporter; 410,000 compounds, 1.2% hits; Potency, µM (highest dose often 57.9 µM), without a hit: at the top dose signal change, negative = less light; human cells with a luciferase reporter of 2A StopGo recoding; control for the full effect not named in the record; active = well fitted falling curve with a large enough effect; inconclusive = small, poorly fitted or top-dose-only effect; inactive = no such curve, though single readings can be large or run the other way; tested in HEK293T cells; also: % is scaled to controls: 0 for no effect and ±100 for the full control effect; nearly all actives have a fitted effect of over 45% in size; luciferase light after 4 h
Cruzain noTriton = cruzain (T. cruzi) inhibition without detergent; P25779; purified cruzain, Z-FR-AMC fluorescence, no detergent; Potency, µM, inactives show max response, negative = inhibition, most hits filed as inhibitors; 200,000 compounds, 2.3% hits; active = well fitted curve in the direction sought with a large enough effect; inconclusive = small, poorly fitted or top-dose-only effect, or another doubt; inactive = no such curve, though single readings can be large; an effect the other way counts as inactive or inconclusive;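 also: plate controls were enzyme without inhibitor for no effect and buffer without enzyme for full effect; nearly all actives have a fitted effect of over 40% in size; top concentration of the series not given in the record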
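Purified cruzain at 1.5 nM, pre-incubated 15 min with compound at room temperature in 100 mM sodium acetate pH 5.5, 5 mM DTT, 0.00005% Triton X-100. Reaction started with 2 uM Z-FR-AMC; AMC fluorescence increase over 60 s gives rate.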
Numbers without * were called inactive; u = inconclusive; x = no result given; & = joins results of further samples; [ ] = remark or other dose. Unless noted, calls follow the shape of the dose curve; as a rule, active means well fitted rising curve with a large enough effect; inconclusive means small, poorly fitted or top-dose-only effect; inactive means no such curve, though single readings can be large or run the other way. Potency is read from the fitted curve at half-maximal effect. Hits appear at their usual frequency. About 4.7% of those tested had a hit in this group.

SMILES	SARS PLpro yeast	LASV entry inh	RE007 growth inh	MARV entry inh	Cruzain Triton	NS1 inh	StopGo reporter	Cruzain noTriton
Cc1ccc(C(=O)NCC(=O)Nc2ccc(C)c(S(=O)(=O)Nc3ccc(Cl)cc3)c2)s1	1%	-12%	-5%	u	x	u	17%	x
CCOc1ccc(NC(=O)c2ccc(S(=O)(=O)N3CCOCC3)cc2)cc1	-5%	-14%[46.1 µM]	35%	11%[46.1 µM]	x	-7%	-6%	x
O=C1c2ccccc2C(O)(c2ncc[nH]2)N1CCc1ccccc1 (stereo unspecified)	-4%	u	10%	10%	4.6%	3%	x	-1%
NS(=O)(=O)c1ccc2nc(NC(=O)COc3ccccc3)sc2c1	x	1%[46.1 µM]	x	x	0.9%	x	0%	-4%
COc1cc(NC(=O)c2nnn(Cc3ccc(SC)cc3)c2N)cc(OC)c1	11%	x	12%	x	-4.4%	-19%	27%	-3%
O=C(Nc1ccc2ccccc2c1)c1ccccc1[N+](=O)[O-]	x	7%[46.1 µM]	-16%	u	x	x	42%[activator]	x
CC1(C)CC(=O)C2=C(C1)Nc1ccccc1S2	-1%	0%	-17%	0%[46.1 µM]	x	-2%	-17%	x
CCOc1ccccc1C(=O)NC(C(=O)NCc1ccc(F)cc1)C(C)C (stereo unspecified)	4%	-11%	33%	13%[46.1 µM]	x	x	-4%	x
COc1ccc(/C=C/C(=O)c2c(C)nc3ccccn23)cc1	-3%	29%	6%	-10%	-4.4%	-57%	35%[activator]	u
CCN(CC)S(=O)(=O)c1cccc(-c2nnc(SCc3ncc(-c4ccccc4)o3)n2C)c1	2%	-3%	1%	-1%&-1%	-3.0%	-4%	-26%	u
COc1ccc(-c2cc(C(=O)Nc3cc(Br)ccc3O)no2)cc1	-1%	3%	-3%	-14%	x	4%	47%[activator]	x
CN1CCN(c2ccc(NC(=O)c3cc4ccccc4o3)cc2)CC1	-1%	x	-2%	x	x	7%	47%[activator]	x
COc1ccccc1NC(=O)CN1C(=O)NC(CC(C)C)C1=O (stereo unspecified)	-1%	13%	-1%	22%	5.3%	3%	23%	13%
CCCCCC[N+](C)(C)CC/C=C1/c2ccccc2Sc2ccc(Cl)cc21	-1%	x	25%	x	x	-1%	0%	x
CC(C)(C)N(Cc1ccccc1)C(=O)COC(=O)c1ccc2ccccc2n1	-6%	10%[46.1 µM]	-6%	3%[46.1 µM]	x	x	-7%	x
COC(=O)N1[C@H](C)C=C[C@]1(Cc1ccccc1)C(=O)O	4%	8%	-19%	17%	6.3%&-1.0%	-1%	-13%	-2%&-3%
O=C(Cn1c(=O)n(Cc2ccc(F)cc2)c(=O)c2ccccc21)NCC1CCCO1 (stereo unspecified)	1%	19%	2%	-3%[46.1 µM]	x	1%	-4%	x
CC(C(=O)Nc1ccc2nccnc2c1)N1C(=O)C2C3C=CC(C3)C2C1=O (stereo unspecified)	7%	x	-5%	x	-5.2%	10%	-9%	2%
CC(Oc1ccc(Cl)cc1Cl)/C(N)=N/O (stereo unspecified)	1%	x	-6%	x	x	0%	-9%	x
O=C(Cc1cccc2ccccc12)NN1C(=O)/C(=C\c2cccnc2)SC1=S	0%	-22%	-16%	4%[46.1 µM]	x	-47%	2%	x
CCOc1ccccc1OC(=O)c1cc2ccccc2oc1=O	0%	4%	3%	0%	x	-10%	43%[activator]	x
CCC(COC)NCc1cn(-c2ccc(OC)cc2)nc1-c1cccc(F)c1 (stereo unspecified)	-2%	u	-27%	10µM*	x	0%	u	x
COc1ccc(NC(=O)C2CCN(c3cnccn3)CC2)cc1OC	25%	7%	4%	0%[46.1 µM]	x	u	1%	x
CC(=O)Nc1ccccc1NC(=O)c1ccccc1	0%	x	-17%	x	x	4%	7%	x
Cc1ccc(CN2CC(C(=O)Nc3cccc(C)n3)CC2=O)cc1 (stereo unspecified)	0%	-7%	10%	0%[46.1 µM]	x	x	-18%	x
Cc1ccc(OCc2ccccc2C)c([N+](=O)[O-])n1	-21%	u	u	-1%[46.1 µM]	x	-33%	-2%	x
Cc1cc(C)n(C(=O)CNC(=O)C2COc3ccccc3O2)n1 (stereo unspecified)	20%	2%	3%	1%	0.7%	-3%	-5%	9%
Cc1ccc(OCC(=O)NC(=S)Nc2ccc(S(=O)(=O)Nc3cc(C)on3)cc2)c(Br)c1	-5%	9%	-10%	18%	x	2%	0%	x
O=C(CSc1nnc(-c2cccnc2)n1Cc1ccco1)c1ccc(Br)cc1	-2%	-1%	23%[3.69 µM]	-33%	-0.7%	-32%	-14%	9%
COc1cccc(/C=N/NC(=O)N/N=C/c2cccc(OC)c2O)c1O	7%	u	2%	4.5µM*	x	6%	7%	x
COc1ccc(N(C(=O)COc2ccc(Br)cc2)S(=O)(=O)c2ccc(C)cc2)cc1	x	-10%[46.1 µM]	x	x	-2.0%	x	14%	0%
COCCCN(CC(=O)Nc1ccc(N2CCOCC2)cc1)S(=O)(=O)c1ccc(Cl)cc1	3%	x	-11%	18%[46.1 µM]	x	x	-8%	x
CC1(C)CC(O)(CCNCc2ccc3c(c2)OCO3)CCO1 (stereo unspecified)	2%	0%	-5%	-8%	1.1%	30%	-4%	-6%
Cc1ccc(S(=O)(=O)N2Cc3ccccc3CC2C(=O)NC(C)(C)C)cc1 (stereo unspecified)	-2%	x	-10%	x	x	13%	8%	x
COc1cc(OC)cc(C(=O)N2CCC(N3CCCCCC3)CC2)c1	-17%	u	-8%	13%	10%	u	30%	4%
Cc1cccc(NC(=O)C2CCN(S(=O)(=O)c3ccc(Cl)cc3)CC2)n1	-2%	-4%	-14%	u	x	x	u	x
O=C(C1CCN(S(=O)(=O)c2cccc3cccnc23)CC1)N1CCN(C2CCCCC2)CC1	8%	x	-3%	1%	-1.7%	-15%	-27%	2%
COc1ccc(N2C(=O)C(CC(=O)Nc3ccc(Cl)cc3)N(Cc3ccc4c(c3)OCO4)C2=O)cc1 (stereo unspecified)	x	u	x	0%[46.1 µM]	-4.3%	x	0%	7%
COC(=O)CSc1nc(NC#N)nc(NC(C)(C)C)n1	0%	x	1%	x	x	-2%	-16%	x
CCC(=O)N[C@@H]1CC(C(C)(C)NC(=O)CC)CC=C1C (stereo partly specified)	5%	-18%	-13%	-9%[46.1 µM]	3.1%	3%	-5%	3%
COc1ccc(N2C(=O)CCC2=O)c(OC)c1	-2%	16%	0%	21%	x	x	-4%	x
COc1ccc(-n2c3c(cc(C(=O)NC4CCSC4=O)c2=O)C(=O)CC(C)(C)C3)cc1 (stereo unspecified)	2%	-5%	-6%	-1%	4.4%	3%	-2%	-2%
Cc1cc(=O)[nH]c(N/N=C/c2ccccc2Cl)n1	1%	x	25%	x	x	9%	33%[activator]	x
COC(=O)c1ccc(NC2(C#N)C(=O)Nc3ccccc32)cc1 (stereo unspecified)	1%	-22%	-3%	-28%	0.7%	-38%	-13%	5%
NC(=O)c1c(NC(=O)CSc2nnc(-c3ccco3)n2N)sc2c1CCCC2	3%	18%	33%	-13%&-13%	-29%	0%	9%	-17%
CN1CCN(C(c2cccc(Br)c2)c2sc3nc(-c4ccco4)nn3c2O)CC1 (stereo unspecified)	x	0%[46.1 µM]	x	x	-2.5%	x	-1%	-12%
COc1ccc(CC(=O)N2CCc3cc(OC)c(OC)cc3C2COc2ccc(OC)cc2)cc1 (stereo unspecified)	x	u	x	x	-0.5%	x	0%	u
CCCC(=O)c1ccc(CP(=O)(OCC)OCC)o1	-1%	x	2%	x	x	-1%	-27%	x
Cn1nnc(NC(=O)c2ccccc2)n1	-14%	0%	1%	22%	-1.1%	-3%	4%	-7%
Cc1onc(-c2ccccc2)c1C(=O)Nc1ccc(S(=O)(=O)N2CCCCC2)cc1	-6%	-10%	0%	-59%&-59%	-4.0%	-9%	-19%	-4%
Cc1cccc(C(=O)OC2CCOC2=O)c1O (stereo unspecified)	12%	28%	-22%	-1%[46.1 µM]	x	-4%	-13%	x
COCCn1c(SCc2ccccc2F)nc2ccccc2c1=O	0%	-19%	11%	-1%[46.1 µM]	x	x	-14%	x
COc1ccc(C2c3[nH]c4ccccc4c3CCN2CCCn2cccn2)c(C)c1C (stereo unspecified)	-1%	-21%	-1%	u	x	-3%	u	x
COc1ccc(NC(=O)c2ccc3[nH]c(C)c(C)c3c2)cc1	-3%	x	-13%	x	x	-7%	46%[activator]	x
Cc1c([N+](=O)[O-])cc(N2C(=O)C=CC2=O)cc1[N+](=O)[O-]	x	-1%	-16%	-20%	x	x	0%	x
CCCC1CCC(c2ccc(C(=O)NN)cc2)CC1 (stereo unspecified)	-28%	u	17%	-19%	-9.9%	13%	-19%	12%
CCOc1ccc(C(=O)NC2CCN(C(=O)NCc3ccccc3)CC2)cc1	2%	u	17%	u	4.2%	1%	0%	0%
O=C(CCc1ccc(S(=O)(=O)NCc2ccccc2)cc1)N1CCN(Cc2ccc3c(c2)OCO3)CC1	0%	-17%	8%	-15%	2.7%	-19%	0%	3%
CCN(CC)CCCNC(=O)c1cn(C)c2ccc(S(=O)(=O)N(C)C3CCCCC3)cc2c1=O	2%	-2%[46.1 µM]	-7%	10%[46.1 µM]	0.6%	-9%	1%&-7%	-13%
COc1ccccc1OCC(=O)Nc1cc2c(cc1C(=O)O)OCCCO2	12%	6%	3%	3%[46.1 µM]	x	15%	22%	x
C=CC[n+]1ccc2ccccc2c1C	0%	15%	-25%	u	x	x	6%	x
CCCn1c(-c2cccs2)nc2nc3ccccc3nc21	3%	0%	u	u	u	-55%	-15%	u
COc1ccc(/C=C(\NC(=O)c2ccccc2)C(=O)NCC2CCCO2)cc1 (stereo unspecified)	3%	17%	18%	23%[46.1 µM]	x	-1%	6%	x
